Sfp inh: Sfp phosphopantetheinyl transferase inhibition; Q9F4F7; Biochemical Sfp PPTase activity, qHTS; Potency, µM, for inactives: max response, negative = inhibition, actives largely listed as inhibitors; 3.5% of 310,000 active; active means well fitted inhibition curve with a large enough effect; inconclusive means small, poorly fitted or top-dose-only effect, or another doubt; inactive means no such curve, though single readings can be large or run the other way;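 further: the enzyme is Sfp with the accession as filed and its product quenches rhodamine fluorescence; potency means the concentration at half of the fitted maximal effect; 0% = enzyme reaction without inhibitor and -100% = no enzyme wells; top concentration of the series not given in the record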
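Compounds were incubated with enzyme (final 15 nM) for 15 min at room temperature before substrate addition started the reaction. Fluorescence at 525 nm excitation, 598 nm emission was recorded immediately and after 30 minutes.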
D2 agonist: activates the human D2 dopamine receptor; AID 624465; activation, % (no concentration beside the values); 0.084% of 360,000 active; DiscoveRx PathHunter D2 beta-arrestin, luminescence, 90 min; 100% = 57 uM dopamine signal; P14416; in the data active = activation above about 40%; inconclusive = about 15% to 40%; inactive = below about 15%; further: compound concentration not given in the record; the text of the record calls up to 30% inactive
Target sequence (P14416 whole entry, looked up): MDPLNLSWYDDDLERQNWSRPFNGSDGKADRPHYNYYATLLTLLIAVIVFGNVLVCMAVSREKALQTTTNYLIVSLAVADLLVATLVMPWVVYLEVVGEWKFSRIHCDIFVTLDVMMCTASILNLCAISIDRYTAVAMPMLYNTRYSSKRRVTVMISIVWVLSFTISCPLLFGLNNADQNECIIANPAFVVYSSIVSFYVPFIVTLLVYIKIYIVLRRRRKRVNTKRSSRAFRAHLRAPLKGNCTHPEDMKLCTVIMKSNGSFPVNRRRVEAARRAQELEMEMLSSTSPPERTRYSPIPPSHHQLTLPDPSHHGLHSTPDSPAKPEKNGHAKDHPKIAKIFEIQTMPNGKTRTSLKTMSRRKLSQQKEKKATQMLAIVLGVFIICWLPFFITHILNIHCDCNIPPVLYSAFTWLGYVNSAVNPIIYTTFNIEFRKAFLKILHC
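Agonist mode: compounds alone added to overnight-plated D2 PathHunter cells for 90 min at 37 C, with 57 uM final dopamine (EC100) defining full response. Beta-arrestin recruitment detected by chemiluminescent reagent, read after 1 h at ambient temperature.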
gsp ag: gsp mutant agonism | Potency, µM (titrated, usually from 76.9 µM), for the others: top-dose activation (cAMP increase), usual class: activators | 0.13% of 340,000 active | gsp mutant cells, cAMP HTRF, 30 min; control for the full effect not named in the record; active = well fitted activation curve with a large enough effect; inconclusive = small, poorly fitted or top-dose-only effect, or another doubt; inactive = no such curve, though single readings can be large or run the other way; cell line not stated here;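 further: phosphodiesterase inhibitor Ro 20-1724 added with compounds to block cAMP breakdown; potency means the concentration at half of the fitted maximal effect; nearly all actives have a fitted effect of over 60% in size; about a fifth of the inactives were tested at one dose only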
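Cells stably selected in G418 were plated at 2000/well, grown 16-24 hr, then given compounds in DMSO with the PDE inhibitor […] (300 uM solution added) for 30 min at 37C; cAMP was read by HTRF.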
PINK1 modulator: PINK1 expression modulation. Potency, µM (highest dose often 76.6 µM), for inactives: at the top dose activation (PINK1 increase), hits mostly activators. 0.2% of 410,000 active. PINK1 immunofluorescence, high-content cytometry, 24 h; active = well fitted activation curve with a large enough effect; inconclusive = small, poorly fitted or top-dose-only effect; inactive = flat fitted curve, though single readings scatter; cell line not stated here;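 further: potency means the concentration at half of the fitted maximal effect; % of control where 0% means no effect; nearly all actives have a fitted effect of over 65% in size; a mitochondrial uncoupler was the plate control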
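Measures PINK1 amount and localization on or inside mitochondria by immunofluorescence. Stable cells get compounds at 5 concentrations for 24 hours before fixation and staining; CCCP controls included.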
Menin-MLL FL inh: inhibitors of human menin-MLL interaction, wild-type MLL peptide. 290,000 tested, under 10 active. FP activity change, % at 61.4 µM. Fluorescence polarization, fluorescein-MLL peptide displacement from menin; inconclusive = falling polarisation curve, or a change in total fluorescence; inactive = total fluorescence flat and polarisation flat or rising; no compound was filed as active; the % refers to the polarisation; negative = inhibition;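 further: % of control where 0% means no effect; inhibitors lower the polarisation; unlabelled MLL peptide was the positive control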
ClpP mod: qHTS Assay for Activators of ClpP | ATP-dependent Clp protease proteolytic subunit (Bacillus subtilis (strain 168)), P80244 | purified B. subtilis ClpP, FRET peptide cleavage, 20 min | Potency, µM (highest dose often 57.5 µM), for the others: top-dose activity change, negative = active | 1.9% of 340,000 active | AID 651965, 2013; active = well fitted falling curve with a large enough effect; inconclusive = small, poorly fitted or top-dose-only effect; inactive = no such curve, though single readings can be large or run the other way; further: potency means the concentration at half of the fitted maximal effect; the source files actives as falling curves though it sought activators and does not explain the sign; nearly all actives have a fitted effect of over 65% in size; many hits overshoot -100%
Target sequence (P80244 whole entry, looked up): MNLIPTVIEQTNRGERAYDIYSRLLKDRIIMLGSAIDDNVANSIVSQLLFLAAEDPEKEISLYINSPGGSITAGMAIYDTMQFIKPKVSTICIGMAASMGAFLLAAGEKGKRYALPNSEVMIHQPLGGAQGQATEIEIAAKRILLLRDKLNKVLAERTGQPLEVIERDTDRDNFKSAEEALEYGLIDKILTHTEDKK
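Buffer: 100 mM Tris/HCl pH8, 100 mM KCl, 0.05% low protease BSA, 2.5% glycerol, 0.01% Tween-20. ClpP 10 microg/mL final; 20 min RT; delta FRET normalized to ADEP and DMSO controls.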
gsp antagonist: antagonists of gsp mutant (McCune-Albright syndrome) | Potency, µM (series often up to 76.9 µM), without a hit: at the top dose activity change, negative = inhibition, hits mostly inhibitors | gsp-mutant cells, cAMP HTRF, 30 min; control for the full effect not named in the record | 0.4% of 340,000 active | AID 624288; active = falling curve of any shape with a large fitted effect; inconclusive = falling curve, mostly with a smaller effect; inactive = flat or rising curve; cell line not stated here;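 further: intracellular cAMP measured with PDE inhibitor Ro 20-1724 present during compound exposure; potency means the concentration at half of the fitted maximal effect; on the % scale 0 is the no-effect control and ±100 the full control effect; nearly all actives have a fitted effect of over 65% in size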
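Measurement of cellular cAMP by homogeneous time-resolved fluorescence following a 30 min compound exposure at 37C. The PDE inhibitor […] was present throughout; the assay buffer was DPBS with 0.05% BSA and 0.005% Tween 20.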
An asterisk follows results filed as active; ? = inconclusive; . = not tested or not shown; & = joins results of further samples; [ ] = dose if it differs, or a comment.

SMILES	Sfp inh	D2 agonist	gsp ag	PINK1 modulator	Menin-MLL FL inh	ClpP mod	gsp antagonist
CCOC(=O)C1(CCCc2ccccc2)CCN(C2CCN(C(C)=O)CC2)CC1	5%	-0.5	-5%	0.4%	-4.9	-2.1%	10%
O=C(Nc1ccc(Cl)cc1)OCc1cn(-c2ccc(Cl)cc2)nn1	7%	12	-51%[inhibitor]	0.5%	-0.2	4.0%	13%
Cc1ccnc(NS(=O)(=O)c2ccc(NC(=O)Cc3ccccc3)cc2)n1	3%	-0.9	-2%	-0.5%	1.7	-7.7%	3%
CCCS(=O)(=O)c1nc(S(=O)(=O)c2ccc(Cl)cc2)c(N2CCC(O)CC2)s1	6%	-4.1	?	-0.7%	-2.3	0.9%	-24%
CN1N=C(C(C)(C)C)CSC1=Nc1ccc(F)cc1	5%	1.0	13%[15.4 µM]	19%	-0.4	-1.6%	-18%
COC(=O)CN1C(=O)CSc2ncccc21	2%	-0.5	-10%	2.6%	6.0	1.3%	7%
C=C1C(=O)OC2C=C(CO)C3OC3C3OC3(C)CC(OC(=O)/C(=C/C)COC(C)=O)C12 (stereo unspecified)	.	-5.4	-6%	-3.1%	.	-1.2%	-3%
COc1cc(C(=S)N2CCCC2)ccc1O	?	-1.6	-13%	?	2.4	1.0%	-1%
COc1ccc([N+](=O)[O-])cc1NC(=O)C(C)OC(=O)Cc1ccc(OC)c(OC)c1 (stereo unspecified)	.	-2.2	-11%	1.5%	.	0.9%	-1%
COCCNC(=O)C1CCCN(C(=O)c2ccc3c(c2)C(C)(C)CCC3(C)C)CC1 (stereo unspecified)	.	0.9	.	1.3%	.	-0.2%	.
O=C(Nc1ccc(F)cc1F)NC1CCCc2ccccc21 (stereo unspecified)	9%	-2.6	?	10%	.	-1.0%	2%
CC(=O)c1cn(-c2ccc(Cl)cc2)c(=O)n(Cc2ccc(Br)cc2)c1=O	16%	-1.4	?	17%	1.3	.	4%
CCOc1ccc(C(CC(=O)O)NC(=O)Cc2ccccc2)cc1OC (stereo unspecified)	21%	1.5	15%	1.3%	4.2	-2.7%	5%
Cc1ccc(-c2nnn(CC(=O)N(CC(=O)NC3CCCC3)c3ccc(F)c(Cl)c3)n2)o1	20%	-0.6	18%	15%	3.8	1.1%	-7%
COc1ccccc1-c1cc(N)n(S(=O)(=O)c2ccc(F)c(C)c2)n1	33%[activator]	0.2	24%	3.6%	4.6	-1.4%	-9%
Cc1[nH][nH]c(=O)c1N=Nc1ccccc1	-4%	-0.1	-9%	-3.2%	0.2	-1.8%	2%
Fc1ccccc1CN1CCCC(NC2CCC2)C1 (stereo unspecified)	16%	-5.2	-4%	-0.3%	0.1	-4.5%	2%
Cc1cc(C)n(C(N)=NC(=O)c2ccc([N+](=O)[O-])cc2)n1	24%	12	-31%	1.5%	-2.2	-1.5%	2%
COc1ccc(S(=O)(=O)N2CCSCC2)cc1	18%	-4.2	1%	-0.6%	-0.9	-3.6%	2%
Cc1ccc(NC(=O)c2ccccc2SCC(=O)N2CCCC2)cc1S(=O)(=O)N(C)C	-3%	-1.0	-24%	0.3%	.	-1.0%	-2%
COc1cc(Cl)c(C)cc1NC(=O)CSC1=NCCS1	.	4.7	-38%[inhibitor]	7.4%	.	2.8%	?
COc1ccc(C(=O)N(CC2CCCO2)C(C(=O)NC2CCCC2)c2ccc(C)cc2)cc1OC (stereo unspecified)	-2%	0.0	?	.	-9.8	-0.7%	7%
Cc1cccnc1NC(=O)CCc1nnc2ccc(NCc3ccco3)nn12	-3%	-1.1	16%	-0.3%	-23	-2.0%	8%
Cc1ccc(-c2csc(N(CCCN(C)C)C(=O)c3ccco3)n2)cc1	18%	0.5	-2%[15.4 µM]	1.6%	-0.7	.	14%
CC(=O)N(c1ccccc1)c1c(F)c(F)c(F)c(F)c1F	4%	0.6	-35%[inhibitor]	.	5.1	-4.9%	-6%
O=C(COC(=O)c1ccc(F)cc1)Nc1ccccc1N1CCOCC1	9%	-1.6	-15%	2.5%	-1.1	-1.7%	-1%
Cc1ccc(C(=O)CCC(=O)OCC(=O)N(C)c2c(N)n(Cc3ccccc3)c(=O)[nH]c2=O)cc1	.	-0.2	1%	2.3%	.	-0.6%	9%
COc1ccc2nc(Nc3nc(C)c(C(C)=O)s3)sc2c1	-8%	-2.3	9%	4.8%	0.2	-7.5%	-26%
CN(CC1CCOCC1)C(=O)CC1C(=O)NCCN1CC(c1ccccc1)c1ccccc1 (stereo unspecified)	-2%	-3.0	-8%	-1.1%	.	-19%	1%
COc1ccc(/C(C)=N/NC(=O)CNC(=O)COc2ccccc2)c(OC)c1	5%	0.4	-24%	-0.7%	-9.7	1.7%	5%
CCN1C(=NCC(C)C)N[C@@H](c2cccc(C(F)(F)F)c2)C(C(=O)OC)=C1C	-1%&9%	-2.1	.	-1.1%	1.1&-1.2	-1.3%	9%
O=C(O)CCCN1C(=O)/C(=C/c2ccc(-c3nc4ccccc4s3)o2)SC1=S	40µM*	-0.7	-1%	2.0%	?	-0.8%	-17%
CN(C(=S)Nc1ccc(SC(F)F)cc1)c1ccc(O)cc1	32µM*	13	18%	-2.0%	2.5	29%	-10%
CC(=O)Nc1ccc(N(C(=O)c2ccccn2)C(C(=O)NC2CCCCC2)c2ccc(F)cc2)cc1 (stereo unspecified)	13%	-3.9	27%	1.0%	0.0	.	5%
CCOC(=O)CSC1=C(C#N)C(c2ccco2)C(C(=O)Nc2cccc(C(F)(F)F)c2)=C(C)N1 (stereo unspecified)	10%	5.6	5%	3.1%[38.3 µM]	9.5	-3.6%	-26%
Cc1ccc(NC(=O)C2CCCN2C(=O)c2cccs2)cc1C (stereo unspecified)	.	0.1	-1%	1.2%	.	0.1%	11%
COc1ccc(CC(=O)OCC(=O)NC(=O)NC23CC4CC(CC(C4)C2)C3)cc1	11%	-0.4	22%	5.4%	-0.4	-0.2%	3%
CCN(CC)c1ccc(Nc2nc(Cl)ncc2Br)cc1	-24%	6.0	5%	2.8%	0.0	.	-10%
COC(=O)[C@]1(Cc2ccccc2)N[C@H](CN(C)S(=O)(=O)c2ccc(-c3ccccc3)cc2)[C@@H]2C(=O)N(C)C(=O)[C@@H]21	.	-0.5	.	-0.1%	.	-2.9%	-8%
COC(=O)c1ccc2nc(-c3ccc(F)cc3)c(Cc3ccccc3)n2c1	.	-8.2	.	4.3%	.	4.9%	.
COc1ccc(Cl)cc1-c1nc(SCC(=O)NCCN2C(=O)CSC2=O)n[nH]1	5%	-3.7	6%	-1.5%	-5.1	-6.6%	1%
COc1ccc(C(=O)Nc2cc(C)c(NC(=O)c3ccccn3)cn2)cc1	-17%	-1.6	3%[15.4 µM]	0.1%	3.8	.	-16%
COc1cc(NC(=O)c2cccc(C)c2)c(Cl)cc1[N+](=O)[O-]	8%	-2.1	-48%[inhibitor]	11%	.	-0.8%	11%
CCc1ccc(NC(=O)CNC(=O)[C@@H]2Cc3ccccc3CN2)cc1	-1%	-1.6	-7%	-0.7%	.	0.2%	21%
CC(Nc1ccc(Cl)cc1)c1cc(Cl)ccc1O (stereo unspecified)	-24%	-0.1	36%	-2.0%	3.8	-1.2%	-15%
O=C(c1cc2c(=O)n3ccccc3nc2s1)N1CCN(Cc2ccc3c(c2)OCO3)CC1	3%	-2.9	-8%[15.4 µM]	1.0%	4.1	.	6%
CCCNCc1cc(Br)ccc1OCC(=O)NCCc1ccccc1	9%	-6.0	9%	2.4%	.	1.7%	-20%
CC(C)(C)c1ccc(C(=O)N2CCC(=O)N(C(CO)Cc3ccccc3)CC2)cc1 (stereo unspecified)	-13%	-2.5	.	0.5%	1.5	1.6%	1%
Cc1c(OCC(=O)N(C)C)ccc2c(-c3ccccc3)cc(=O)oc12	14%	0.4	25%	4.1%	-4.2	.	-12%
CCC1CCCCN1C(=O)COc1cccc2c1CCN(C)C2=O (stereo unspecified)	-12%	-1.8	8%[15.4 µM]	3.5%	-1.3	0.2%	11%
CCc1ccc(NC(=O)CSc2ccc(-c3ccco3)nn2)cc1	35µM*	2.8	9%[15.4 µM]	1.4%	3.5	0.7%	-2%
O=C(Nc1nccs1)C1CCCN(S(=O)(=O)c2cccnc2)C1 (stereo unspecified)	-3%	-4.1	-13%	1.5%	2.8	-2.4%	9%
CCc1ccccc1NC(=O)c1ccc2snnc2c1	-1%	-3.2	?	2.6%	.	-0.9%	4%
O=C(Nc1cnccn1)C1c2ccccc2Oc2ccccc21	7%	-4.0	3%	13%[38.3 µM]	-0.4	-0.5%	7%
CCOC(=O)c1sc(NC(=O)CSc2nc(-c3ccco3)cc(C(F)(F)F)n2)c(C(=O)OC)c1C	-12%	0.7	-24%	.	4.8	0.4%	4%
O=C(O)c1ccccc1-c1ccccc1C(=O)Nc1ccc2c(c1)[nH]c(=O)c1ccccc12	-4%	-2.8	-4%[15.4 µM]	1.5%	-1.8	-6.5%	?
Cc1c(/C=N/NC(=O)c2ccccc2O)c2ccccn2c1C(=O)c1ccc(F)cc1	6%	-6.0	?	28µM*	?	?	-65%
Cc1ccc(S(=O)(=O)NCC(=O)OCC(=O)Nc2cccc(S(=O)(=O)NC3=NCCCCC3)c2)cc1C	21%	-7.0	?	0.8%	3.1	2.0%	0%
COc1ccc(-c2nnc(SCC(=O)Nc3cc(S(=O)(=O)N4CCCCC4)ccc3Cl)n2N)cc1	-1%	1.0	-72%[inhibitor]	8.4%	3.4	1.5%	-4%
O=C(CC(=O)c1ccccc1)c1ccccc1	-30%	-6.3	-32%[inhibitor]	4.6%	-2.8	2.8%	-2%

Compound profiles (already shown):
CCc1ccccc1NC(=O)c1ccc2snnc2c1 is listed with Sfp inh: -1%; D2 agonist: -3.2; gsp ag: ?; PINK1 modulator: 2.6%; Menin-MLL FL inh: .; ClpP mod: -0.9%; gsp antagonist: 4%
Cc1c(OCC(=O)N(C)C)ccc2c(-c3ccccc3)cc(=O)oc12 is listed with Sfp inh: 14%; D2 agonist: 0.4; gsp ag: 25%; PINK1 modulator: 4.1%; Menin-MLL FL inh: -4.2; ClpP mod: .; gsp antagonist: -12%
